YB-1 expression – YB-1 expression inhibition. U2OS, qRT-PCR YB-1 vs CDIP delta delta Cp, 16 h; hits give high values; zero = DMSO, each unit about twofold. delta delta Cp (YB-1 minus CDIP) (concentration not given with the values). 0.37% of 30,000 active. AID 434959;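 active = delta delta Cp rounded down to an integer at or above 3, about 3 SD of DMSO wells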;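 also: higher means less YB-1 transcript or more CDIP transcript relative to DMSO; stock transfer was 100 nL into about 100 µL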
Shh pathway inh – Sonic Hedgehog pathway inhibition | inhibition, % (no concentration beside the values) | Shh-LIGHT2 Gli-luciferase reporter, 30 h | 2.1% of 22,000 active;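 active = replicate mean of 65% or more; inconclusive = mean lower but half the replicates past it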;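 also: pathway switched on by Shh-conditioned medium diluted 1 in 25 in low serum; 100 nL library stock added to about 40 µL; 0% = median of neutral wells and 100% = positive control level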
MITF inh – blocks MITF activity; AID 2240; 0.28% of 37,000 active; inhibition, % (no concentration beside the values); TRPM1 promoter luciferase, luminescence, 24 h;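 active = most replicates at 85% or more, or half of them and the mean; inconclusive = half reach 85% but not the mean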;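 also: human melanocyte line stably carrying TRPM1 promoter luciferase reporter; 0% = vehicle wells and 100% = a positive control; the first replicate is given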
PD-1 reverse act – reversal of PD-1 mediated T-cell inhibition. primary human CD4 T cells, PD-L1 beads, CellTiter-Glo 96 h. activation, % (no concentration beside the values). 29,000 tested, under 10 active;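 active = replicate mean of 50% or more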;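 also: 0% = median vehicle wells and 100% = positive control; 100 nL library stock added to about 50 µL; numbers are from one replicate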
* = called active by the depositor; ? = inconclusive; nt = no result given. Not all compounds are listed; count on the stated rates, not on these rows.

Start of the data: the first 4 compounds, to show the layout:
SMILES	YB-1 expression	Shh pathway inh	MITF inh	PD-1 reverse act
C[C@H]1CN([C@@H](C)CO)C(=O)Cc2cc(NS(=O)(=O)c3ccc(F)cc3)ccc2O[C@@H]1CN(C)Cc1ccc(C(F)(F)F)cc1	0.00088	26	10	nt
Cc1ccccc1NC(=O)CSc1n[nH]c(-c2ccncc2)n1	nt	nt	-5	2.4
C[C@H](CO)N1C[C@H](C)[C@H](CN(C)Cc2ccc(Cl)c(Cl)c2)Oc2ccc(NC(=O)Nc3ccc4c(c3)OCO4)cc2CC1=O	0.28	-8	29	nt
CNC[C@H]1Oc2c(NC(=O)C3CCOCC3)cccc2C(=O)N([C@H](C)CO)C[C@H]1C	-0.26	4	4	2.2

This part in full, repeating the preview:
SMILES	YB-1 expression	Shh pathway inh	MITF inh	PD-1 reverse act
C[C@H]1CN([C@@H](C)CO)C(=O)Cc2cc(NS(=O)(=O)c3ccc(F)cc3)ccc2O[C@@H]1CN(C)Cc1ccc(C(F)(F)F)cc1	0.00088	26	10	nt
Cc1ccccc1NC(=O)CSc1n[nH]c(-c2ccncc2)n1	nt	nt	-5	2.4
C[C@H](CO)N1C[C@H](C)[C@H](CN(C)Cc2ccc(Cl)c(Cl)c2)Oc2ccc(NC(=O)Nc3ccc4c(c3)OCO4)cc2CC1=O	0.28	-8	29	nt
CNC[C@H]1Oc2c(NC(=O)C3CCOCC3)cccc2C(=O)N([C@H](C)CO)C[C@H]1C	-0.26	4	4	2.2
Cc1ccc(-c2csc3ncnc(SCC(=O)c4ccc5c(c4)OCCO5)c23)cc1	nt	nt	29	1.6
Cc1noc(C)c1NC(=O)N(C)C[C@@H]1Oc2ccc(NC(=O)CCC(F)(F)F)cc2C(=O)N([C@H](C)CO)C[C@H]1C	0.15	nt	5	1.3
C[C@H](CO)N1C[C@H](C)[C@@H](CN(C)C(=O)Nc2ccc(C(F)(F)F)cc2)Oc2ccc(NC(=O)C3CC3)cc2C1=O	3.3*	-14	-5	-1.6
Cc1ccc(S(=O)(=O)N(C)C[C@@H]2Oc3ccc(NC(=O)NC4CCCCC4)cc3CC(=O)N([C@@H](C)CO)C[C@@H]2C)cc1	-0.18	nt	43	-0.1
C[C@@H]1CN([C@@H](C)CO)C(=O)c2cccc(NS(C)(=O)=O)c2O[C@@H]1CN(C)Cc1ccc(Oc2ccccc2)cc1	-0.034	14	-12	-0.8
C[C@@H]1CN([C@@H](C)CO)C(=O)c2cc(NC(=O)NC3CCCCC3)ccc2O[C@@H]1CN(C)C	0.28	nt	-10	2.0
Cc1cc(C)c(CN(C)C)c(O)c1	-0.069	0	-17	0.2
COc1ccc(NC(=O)N(C)C[C@@H]2Oc3ccc(NS(=O)(=O)c4ccc(Cl)cc4)cc3C(=O)N([C@@H](C)CO)C[C@H]2C)cc1	0.18	-17	7	0.5
COc1ccc([C@@]2(O)c3c(ccc(CC=C(C)C)c3O)NC(=O)[C@@H]2OC)cc1	-0.17	13	5	-0.9
COc1ccc(NC(=O)N(C)C[C@H]2Oc3ccc(NC(=O)CCN4CCOCC4)cc3CC(=O)N([C@H](C)CO)C[C@H]2C)cc1	0.32	-21	3	0.1
CC(C)NC(=O)Nc1cccc2c1O[C@@H](CN(C)S(=O)(=O)c1ccc(F)cc1)[C@@H](C)CN([C@@H](C)CO)C2=O	0.54	80*	-4	0.8
COc1cc(C2OCC3C(c4cc(OC)c(OC)c(OC)c4)OCC23)cc(OC)c1OC (stereo not given)	-0.31	1	-8	-3.3
CNC[C@H]1OCCCC[C@@H](C)Oc2ccc(NS(=O)(=O)c3ccc(Cl)cc3)cc2C(=O)N([C@H](C)CO)C[C@@H]1C	0.26	nt	0	1.4
C[C@@H]1CN([C@@H](C)CO)C(=O)c2cc(NS(=O)(=O)c3cn(C)cn3)ccc2O[C@@H]1CN(C)Cc1ccc(C(F)(F)F)cc1	-0.23	-27	5	1.7
C[C@@H]1O[C@@H](OC[C@H]2O[C@@H](Oc3c(-c4ccc(O)c(O)c4)oc4cc(O)cc(O)c4c3=O)[C@H](O)[C@@H](O)[C@@H]2O)[C@H](O)[C@H](O)[C@H]1O	0.13	-7	-6	2.3
C[C@@H]1CN([C@H](C)CO)C(=O)Cc2cc(NC(=O)CCCCCC(=O)Nc3ccccc3N)ccc2O[C@H]1CN(C)C	-0.18	nt	-2	-1.1
COc1ccc(C)cc1NC(=O)CCN1CCN(Cc2ccccc2)CC1	nt	nt	-2	-1.4
CC1(C)CC[C@@]2(C(=O)O[C@@H]3O[C@H](CO)[C@@H](O)[C@H](O)[C@H]3O)C(C1)C1=CCC3[C@@]4(C)CC[C@@H](O[C@@H]5O[C@H](C(=O)O)[C@@H](O[C@@H]6OC[C@@H](O)[C@H](O)[C@H]6O)[C@H](O[C@@H]6OC[C@](O)(CO)[C@H]6O)[C@H]5O)C(C)(C)C4CC[C@@]3(C)[C@]1(C)C[C@H]2O (stereo not given in full)	-0.15	-4	-1	-0.5
N#Cc1c(-c2ccccc2)n2c(-c3ccccc3)nn(-c3ccccc3)c2nc1=O	0.11	nt	-8	-0.1
COc1ccc(S(=O)(=O)Nc2ccc3c(c2)C(=O)N([C@H](C)CO)C[C@H](C)[C@@H](CN(C)S(C)(=O)=O)O3)cc1	16*	-19	-4	0.9
C[C@@H]1CN([C@@H](C)CO)C(=O)Cc2cc(NC(=O)Cn3cnnn3)ccc2O[C@@H]1CN(C)Cc1ccc(Oc2ccccc2)cc1	-0.32	-37	-1	1.4
SMILES	YB-1 expression	Shh pathway inh	MITF inh	PD-1 reverse act
COc1ccc(NC(=O)N(C)C[C@@H]2OCCCC[C@@H](C)Oc3ccc(NC(=O)NC(C)C)cc3C(=O)N([C@H](C)CO)C[C@@H]2C)cc1	0.15	-4	9	-1.9
C[C@@H]1CN([C@H](C)CO)C(=O)Cc2cc(N(C)C)ccc2O[C@@H]1CN(C)Cc1ccc(C(=O)Nc2ccccc2N)cc1	0.094	nt	65	-2.7
C[C@H](CO)N1C[C@H](C)[C@H](CN(C)C(=O)Nc2ccc(F)cc2)Oc2ccc(NC(=O)Cn3cnnn3)cc2C1=O	0.08	-8	-10	nt
Cc1noc(C)c1S(=O)(=O)Nc1ccc2c(c1)CC(=O)N([C@@H](C)CO)C[C@H](C)[C@@H](CN(C)Cc1ccncc1)O2	-0.43	nt	-5	nt
C[C@H](CO)N1C[C@H](C)[C@H](CN(C)Cc2ccncc2)Oc2ccc(NC(=O)Cc3ccccc3)cc2CC1=O	0.34	3	-13	-0.6
O=C(CN1C(=O)c2cccc3cccc1c23)Nc1cccc([N+](=O)[O-])c1	nt	nt	-1	0.0
Cc1cc(I)cc(C)c1NC(=O)CSc1nnnn1-c1ccccc1	nt	nt	-7	1.1
C[C@@H]1CN([C@H](C)CO)C(=O)Cc2cc(NC(=O)Nc3cccc4ccccc34)ccc2O[C@@H]1CN(C)S(C)(=O)=O	-0.31	nt	7	0.5
C[C@@H]1CN([C@@H](C)CO)C(=O)Cc2cc(NC(=O)Nc3cccc4ccccc34)ccc2O[C@@H]1CN(C)Cc1ccc(Cl)c(Cl)c1	0.071	21	47	-5.3
NS(=O)(=O)c1cc(C(=O)O)c(NCc2ccco2)cc1Cl	0.59	-6	-5	nt
C[C@@H]1CN([C@@H](C)CO)C(=O)Cc2cc(NS(=O)(=O)c3ccccc3)ccc2O[C@@H]1CN(C)CC1CC1	0.29	-18	-9	1.0
Cn1c(=O)c2c(ncn2CC(=O)Nc2ccc(Br)cc2F)n(C)c1=O	nt	nt	8	-0.2
OC(CCN1CCCCC1)(c1ccccc1)c1ccccc1	0.096	20	3	nt
Cc1noc(C)c1S(=O)(=O)Nc1ccc2c(c1)CC(=O)N([C@@H](C)CO)C[C@H](C)[C@H](CN(C)C(=O)NC(C)C)O2	-0.54	nt	-3	nt
CS(=O)(=O)N(CC(=O)NC1CCCC1)c1ccc(F)c(Cl)c1	nt	nt	6	1.2
CCOC(=O)CC1Sc2ccccc2N=C1SCCS(=O)(=O)c1ccc(Cl)cc1 (stereo not given)	-0.17	22	-7	-0.3
COc1ccc(Nc2nc(N)nc(COc3ccc(OC)cc3)n2)cc1	nt	nt	-12	-0.7
C[C@H](CO)N1C[C@H](C)[C@@H](CN(C)Cc2ccc(C(=O)Nc3ccccc3N)cc2)Oc2c(NS(=O)(=O)c3ccc(Cl)cc3)cccc2C1=O	-0.1	nt	8	-0.2
COc1cccc(OCC(=O)Nc2ccc(-c3nc4ccccc4[nH]3)cc2)c1	nt	nt	-22	-3.2
Cc1ccc(S(=O)(=O)N(C)C[C@@H]2OCCCC[C@@H](C)Oc3ccc(NS(=O)(=O)c4c(C)noc4C)cc3C(=O)N([C@H](C)CO)C[C@@H]2C)cc1	-0.027	?	7	-4.4
C[C@H](CO)N1C[C@H](C)[C@@H](CN(C)S(=O)(=O)c2ccc(F)cc2)Oc2ccc(NS(=O)(=O)c3ccccc3)cc2C1=O	-0.03	-21	-9	nt
CC(C)NC(=O)Nc1cccc2c1O[C@H](CN(C)S(=O)(=O)c1ccc(Cl)cc1)[C@H](C)CN([C@@H](C)CO)C2=O	0.74	20	-5	-0.1
C[C@H](CO)N1C[C@H](C)[C@H](CN(C)S(=O)(=O)c2cccs2)Oc2c(NS(=O)(=O)c3cn(C)cn3)cccc2C1=O	0.038	-4	0	0.9
CC1CCC2C(C)(C)[C@@H](O)CC[C@]2(C)C12Cc1c(O)cc3c(c1O2)CN(C(CCC(=O)O)C(=O)O)C3=O (stereo not given in full)	0.045	9	6	1.5
O=C1Oc2cc(O)cc(O)c2[C@@H](c2ccc(O)cc2)[C@H]1[C@H]1C(=O)Oc2cc(O)cc(O)c2[C@H]1c1ccc(O)cc1	-0.055	-19	-7	-1.5
SMILES	YB-1 expression	Shh pathway inh	MITF inh	PD-1 reverse act
CS(=O)(=O)N(CC(=O)NC1CCCC1)c1cccc(F)c1	nt	nt	0	1.6
Cc1noc(C)c1NC(=O)Nc1ccc2c(c1)C(=O)N([C@H](C)CO)C[C@H](C)[C@H](CN(C)S(=O)(=O)c1ccc(F)cc1)OCCCC[C@@H](C)O2	-0.91	-34	1	1.2
Cc1c(C(N)=O)sc2ncn(CC(=O)Nc3cc(Cl)ccc3Cl)c(=O)c12	nt	nt	-12	-2.4
C[C@H](CO)N1C[C@H](C)[C@H](CN(C)C)Oc2ccc(NC(=O)Cn3cnnn3)cc2C1=O	-0.18	-29	0	0.2
CCN(CC(=O)Nc1cccc([N+](=O)[O-])c1)S(=O)(=O)c1ccc(Cl)cc1	nt	nt	16	-0.6
COc1ccc(CN(C)C[C@@H]2Oc3c(NC(=O)Nc4cccc5ccccc45)cccc3C(=O)N([C@H](C)CO)C[C@@H]2C)cc1	-0.044	-16	12	0.8
COc1ccc(OC(C)C(=O)Nc2cc([N+](=O)[O-])ccc2C)cc1 (stereo not given)	nt	nt	-33	-2.4
C[C@@H]1CN([C@H](C)CO)C(=O)c2cccc(NS(=O)(=O)c3ccccc3)c2O[C@@H]1CN(C)Cc1ccncc1	0.064	6	-18	1.3
CNC[C@H]1Oc2ccc(NS(=O)(=O)c3c(C)noc3C)cc2CC(=O)N([C@@H](C)CO)C[C@@H]1C	0.076	-17	10	nt
COc1c(C)c2c(c(O)c1C/C=C(\C)CCC(=O)O)C(=O)OC2	0.96	-10	-2	-4.0
O=C(c1ccc(Br)cc1)c1cc2c(cc1Br)OCCCO2	-0.48	-3	-8	-0.1
C[C@@H]1CN([C@@H](C)CO)C(=O)c2cc(NS(=O)(=O)c3cn(C)cn3)ccc2O[C@H]1CN(C)S(=O)(=O)c1cn(C)cn1	0.35	nt	-10	1.8
C[C@@H]1C[C@@H](O)C2[C@@](C)(CO)CCC[C@]2(C)[C@@]1(O)CCc1ccoc1 (stereo not given in full)	-0.21	-3	-7	0.5
C[C@H]1CN([C@@H](C)CO)C(=O)Cc2cc(NS(=O)(=O)c3ccc(F)cc3)ccc2O[C@H]1CN(C)S(=O)(=O)c1cccs1	0.11	-7	-12	0.5
C[C@H](CO)N1C[C@H](C)[C@H](CN(C)Cc2ccc(Cl)c(Cl)c2)Oc2ccc(N(C)C)cc2C1=O	0.11	-8	-1	-1.7
C[C@@H]1CCCCO[C@H](CN(C)C(=O)CCCN(C)C)[C@@H](C)CN([C@H](C)CO)C(=O)c2cc(NS(=O)(=O)c3ccc(F)cc3)ccc2O1	-0.14	nt	6	nt
C[C@@H]1CN([C@@H](C)CO)C(=O)c2cccc(NC(=O)C3CCCCC3)c2O[C@@H]1CN(C)C	-0.16	9	-7	-0.1
C[C@@H]1CN([C@H](C)CO)C(=O)c2cccc(NC(=O)c3nc4ccccc4s3)c2O[C@H]1CN(C)S(C)(=O)=O	-0.17	38	-3	nt
C[C@H]1CN([C@@H](C)CO)C(=O)c2cc(NC(=O)Nc3ccc4c(c3)OCO4)ccc2O[C@@H]1CN(C)S(=O)(=O)c1ccc(Cl)cc1	-0.13	nt	3	1.6

3 compounds drawn at random from those above:
SMILES	YB-1 expression	Shh pathway inh	MITF inh	PD-1 reverse act
COc1ccc(C)cc1NC(=O)CCN1CCN(Cc2ccccc2)CC1	nt	nt	-2	-1.4
C[C@@H]1CN([C@@H](C)CO)C(=O)c2cc(NS(=O)(=O)c3cn(C)cn3)ccc2O[C@@H]1CN(C)Cc1ccc(C(F)(F)F)cc1	-0.23	-27	5	1.7
C[C@@H]1CN([C@@H](C)CO)C(=O)Cc2cc(NC(=O)Nc3cccc4ccccc34)ccc2O[C@@H]1CN(C)Cc1ccc(Cl)c(Cl)c1	0.071	21	47	-5.3

Bioassay records: PubChem, Broad Institute
